Assay outcomes: PubChem BioAssay, several laboratories
VCAM-1 augmentation – enhancers of VCAM-1 display on endothelial cells, imaging, high-content imaging, pooled HUVEC, TNFa stimulus (AID 457); Pooled HUVEC, TNFa-induced VCAM-1 immunofluorescence imaging; hits of this screen are not shown here; calls only; 10,000 compounds, 0.2% hits;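 active = a top-ranked rise in VCAM-1 staining upheld on image or statistical review; inactive = the rest, including candidates rejected on review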;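 note: compounds tested at 5 µM in the well; cells exposed to compound for 24 hours before fixing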
VCAM-1 down – inhibitors of TNFa-induced VCAM-1 surface display, cell-based, plate reader, pooled HUVEC, TNFa stimulus (AID 454); HUVEC TNFa-induced VCAM-1 surface immunofluorescence, plate reader; numbers were filed only for top-ranked candidate wells; inhibition, % at 5 µM; 10,000 compounds, 0.2% hits;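 active = compound among top-ranked inhibitors of TNF-induced VCAM-1 adhesion protein staining, with the hit upheld by image or statistical review; inactive = the rest, including hits rejected on review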;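 note: 0% = TNFa with vehicle and 100% = cells without TNFa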
FPRL1 binder – human FPRL1 ligand, with FPR counter-screen | P25090 | FPRL1-expressing cells, fluorescent ligand binding inhibition, flow cytometry | inhibition, %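 (tested at 6.7 µM)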 | 24,000 compounds, 0.3% hits;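 note: 0% = buffer alone and 100% = receptor blocker peptide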
Target sequence (P25090 whole entry, looked up): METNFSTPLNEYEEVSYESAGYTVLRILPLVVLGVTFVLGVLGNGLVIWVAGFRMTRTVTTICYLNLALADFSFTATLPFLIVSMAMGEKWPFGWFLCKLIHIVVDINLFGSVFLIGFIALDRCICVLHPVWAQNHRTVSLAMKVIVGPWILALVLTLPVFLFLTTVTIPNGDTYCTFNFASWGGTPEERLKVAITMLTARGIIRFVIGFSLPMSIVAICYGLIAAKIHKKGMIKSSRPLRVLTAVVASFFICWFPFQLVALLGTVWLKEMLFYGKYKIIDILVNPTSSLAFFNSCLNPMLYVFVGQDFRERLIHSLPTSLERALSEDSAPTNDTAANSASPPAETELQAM
VCAM-1 imaging – suppression of endothelial VCAM-1 upregulation – imaging, high-content imaging, pooled HUVEC, TNFa stimulus (AID 456); one-dose inhibition, % at 5 µM; IC50 in µM for titrated hits; HUVEC TNFa-induced VCAM-1 surface expression, immunofluorescence imaging; numbers were filed only for top-ranked candidate wells; 10,000 compounds, 0.2% hits;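 active = top tenth filtered wells with inhibition above zero that passed visual or statistical confirmation; inactive = the rest, including hits rejected on review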;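 note: 0% = stimulated vehicle wells and 100% = unstimulated cells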
FPR binder – human FPR ligand, with FPRL1 counter-screen; P21462; FPR-expressing cells, fluorescent ligand binding, flow cytometry; inhibition, %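 (tested at 6.7 µM)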; 24,000 compounds, 0.74% hits; AID 440;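 note: 0% = buffer wells and 100% = receptor blocker peptide wells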
Target sequence (P21462 whole entry, looked up): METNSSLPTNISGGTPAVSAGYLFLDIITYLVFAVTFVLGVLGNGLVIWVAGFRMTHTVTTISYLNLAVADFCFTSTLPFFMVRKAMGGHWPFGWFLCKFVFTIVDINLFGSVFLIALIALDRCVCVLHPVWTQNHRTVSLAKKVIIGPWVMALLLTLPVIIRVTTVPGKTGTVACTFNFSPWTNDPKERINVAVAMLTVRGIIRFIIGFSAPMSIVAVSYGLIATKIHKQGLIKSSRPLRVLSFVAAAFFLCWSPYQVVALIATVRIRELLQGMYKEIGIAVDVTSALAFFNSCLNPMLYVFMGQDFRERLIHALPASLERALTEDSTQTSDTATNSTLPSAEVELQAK
* = called active by the depositor; i = inactive; . = no result given.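 Rule for the calls, unless noted: active = mean above 30%; inconclusive = self-fluorescent; inactive = the rest.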 A portion of the library; the hit share may differ from the screen's.

SMILES	VCAM-1 augmentation	VCAM-1 down	FPRL1 binder	VCAM-1 imaging	FPR binder
CCOC(=O)c1cnc(SC2CC(=O)N(c3ccc(OC)c(OC)c3)C2=O)nc1N (centres undefined)	i	i	5	i	-1
Cc1cc(C)n(CCCNC(=O)c2ccc(S(=O)(=O)NCc3ccco3)cc2)n1	i	i	0	i	2
CCOC(=O)N1CCN(C(=O)CSc2nnc(-c3cc(OC)ccc3OC)o2)CC1	.	.	2	.	4
COCC(=O)NCc1ccc2c(c1)cc(C)n2C	.	.	3	.	-5
O=C(CNS(=O)(=O)c1cccs1)Nc1ccc2c(c1)OCCO2	.	.	-2	.	-6
Cc1cc(C)c(NC(=O)C2CCCN2CCO)c(C)c1 (centres undefined)	i	i	4	i	-4
COc1ccc(C(=O)N2CCSC2=S)cc1OC	i	i	4	i	2
O=C1N=C(N2CCOCC2)CS1	i	i	1	i	-5
Cc1ccc2cc(CN(CCN3CCCC3)C(=O)Nc3ccc(F)cc3)c(=O)[nH]c2c1C	i	i	2	i	-1
O=C(NC1CCCC1)c1cnn2c(C(F)(F)F)cc(-c3ccco3)nc12	.	.	1	.	14
CN1CCN(Cc2nc3c(c(=O)n(C)c(=O)n3C)n2Cc2ccccc2Cl)CC1	i	i	4	i	-2
Cc1ccc2cc3cc(C(=O)NCCCN4CCCCCC4)oc3nc2c1	.	.	6	.	10
CCN(CC)C(=O)c1cc(-c2ccccc2OC)on1	.	.	-2	.	0
COc1ccc(C)cc1NS(=O)(=O)c1ccc(NS(=O)(=O)c2ccc(NC(C)=O)cc2)cc1	i	i	-1	i	-3
O=C(CSc1nnc(-c2cnccn2)n1Cc1ccco1)c1ccc(Cl)cc1	i	i	-4	i	3
Nc1nc(Nc2cccc(C(F)(F)F)c2)nc(C(F)(F)F)n1	.	.	-6	.	-3
N#Cc1ccccc1Cn1c(=O)n(Cc2ccc(C(=O)NCc3ccco3)cc2)c(=O)c2ccccc21	i	i	0	119%	-6
O=C(NCc1ccccn1)C1CCC(=O)N1C1CCCC1 (centres undefined)	.	.	-2	.	-3
Cc1ccc(-n2ncc3c(Nc4c(C)n(C)n(-c5ccccc5)c4=O)ncnc32)c(C)c1	i	i	3	i	5
COc1ccc(NC(=O)N(C2CCCCC2)C(C)c2ccco2)c(OC)c1 (centres undefined)	.	.	6	.	-3
CCOC(=O)N1CCN(C(c2ccc(Cl)cc2)c2sc3nc(C)nn3c2O)CC1 (centres undefined)	i	i	-1	i	-3
CN1C(=C2C(=O)OC(C)(C)OC2=O)Sc2ccccc21	.	.	9	.	-6
CC(C)C(NS(=O)(=O)c1ccc(Br)s1)C(=O)O (centres undefined)	.	.	7	.	-1
C=CCNc1oc(COc2ccc(C)cc2)nc1C#N	.	.	3	.	2
Cc1ncc2c(c1OC(=O)c1ccccc1)COC(C)(C)OC2	.	.	5	.	1
COC(=O)c1ccc(CSc2nc3c(cnn3-c3ccccc3)c(=O)[nH]2)o1	.	.	1	.	27
O=C(CSc1nnc(COc2ccccc2)o1)Nc1nccs1	.	.	-3	.	1
Cc1cc2c(cc(C(=O)NCCCN3CCOCC3)n2Cc2ccc(Cl)cc2)o1	.	.	4	.	2
COc1ccc(C)cc1NC(=O)C1CCN(S(=O)(=O)c2cccc3cccnc23)CC1	i	i	-6	i	-2
COc1ccc(S(=O)(=O)NC(CC(=O)N2CCc3ccccc32)c2ccco2)cc1 (centres undefined)	.	.	0	.	9
COc1ccc(NC(=O)Nc2cccs2)cc1OC	.	.	-4	.	-10
Cc1cccn2cc(CNC(=O)CC3CCCC3)nc12	.	.	-5	.	2
COCCCNC(=O)CCn1c(=O)c2ccccc2n(CC(=O)Nc2ccc(C)cc2C)c1=O	i	i	1	i	0
Cc1cc(NS(=O)(=O)c2ccc(NC(=O)C(C)N3C(=O)c4ccccc4C3=O)cc2)nc(C)n1 (centres undefined)	i	i	4	i	-1
COc1ccc(-c2nc(-c3ccc(NC(=O)c4ccc(Br)o4)cc3)no2)cc1OC	.	.	50*	.	43*
CC1CC(C)CN(CC(=O)Nc2ccc(S(N)(=O)=O)cc2)C1 (centres undefined)	i	i	-2	i	-10
O=C(CSCc1cnn(-c2ccccc2)c1-n1cccc1)NCc1cccs1	.	.	-9	.	-9
COc1cc(CN(C)CC(=O)c2[nH]c(C)c(C(C)=O)c2C)ccc1OC(F)F	i	i	-4	i	-5
CCCCCc1c(C)nc(N2CCc3ccccc32)[nH]c1=O	i	i	-3	i	6
CC(C)(C)c1ccc(S(=O)(=O)NCCc2ccncc2)cc1	.	.	-4	.	2
COC(=O)c1cccc(Oc2nc3c(c(=O)n(C)c(=O)n3C)n2Cc2ccc(C)cc2)c1	.	.	1	.	-4
CC(=O)c1ccc2c(c1)Nc1ccccc1S2	.	.	4	.	1
O=C1c2ccccc2C(=O)N1CNc1ccccc1	i	i	-5	i	-5
Cc1cccc(NC(=O)c2cnc3sccn3c2=O)n1	i	i	6	i	0
CCOC(=O)Cn1c(=O)oc2cc(S(=O)(=O)N3CCC(N4CCCCC4)CC3)ccc21	.	.	-1	.	-2
CC(=O)N(C(C)=O)c1cccc2c(N(C(C)=O)C(C)=O)cccc12	i	i	-2	i	2
CNc1nn(-c2cccc(Cl)c2)nc1N	.	.	90*	.	-9
COc1cc(NC2c3ncccc3C(=O)N2Cc2ccco2)cc(OC)c1 (centres undefined)	.	.	9	.	2
COc1ccc2c(c1OC)C(=O)N(C(C)C(=O)O)C2=O (centres undefined)	.	.	2	.	7
CCn1ncc(Cl)c1C(=O)Nc1ccncc1	i	i	-5	i	-8
COc1cccc(CNC(=O)CN(C)S(=O)(=O)c2cnc[nH]2)c1	.	.	6	.	2
CCSc1nc2c(c(=O)n1CC)SC(C)C2 (centres undefined)	i	i	1	i	1
S=c1[nH]c2ccc(Cl)cc2[nH]1	i	i	-3	i	2
O=C(Nc1ccc2c(c1)OCO2)C1CCN(S(=O)(=O)c2cccc3cccnc23)CC1	.	.	-2	.	4
COc1cccc(C(=O)N2CCCC(c3nc(-c4cccs4)no3)C2)c1 (centres undefined)	i	i	3	i	2
CCn1c(=S)sc2c(=O)n(-c3ccccc3)c(SC)nc21	.	.	-2	.	2
COc1ccc(CNC(=O)c2cccc(N3CCCC3=O)c2)cc1	.	.	-7	.	-7
CCC(=O)N(c1ccc(F)cc1)C1C=CS(=O)(=O)C1 (centres undefined)	.	.	11	.	6
CC1CN(S(=O)(=O)c2ccc(Cl)c(C(F)(F)F)c2)CC(C)O1 (centres undefined)	i	i	1	i	-6
CCOC(=O)N1CCC(NS(=O)(=O)c2ccc3c(c2)OCC(=O)N3)CC1	.	.	2	.	-7

Other results follow.
SMILES	VCAM-1 augmentation	VCAM-1 down	FPRL1 binder	VCAM-1 imaging	FPR binder
COc1ccc(CNC(=O)c2ccc(NS(=O)(=O)c3c(C)noc3C)cc2)cc1	.	.	-9	.	-1
Cc1nc(CSc2nnc3scc(-c4ccccc4)n23)cs1	.	.	5	.	-2
CCOC(=O)c1c(NC(=O)c2ccoc2C)sc2c1CCC2	i	i	-8	i	3
COc1ccc(CCNS(=O)(=O)c2ccc3c(c2)oc(=O)n3C)cc1OC	.	.	4	.	-1
Cc1nc2ncnn2c(C)c1CCC(=O)Nc1ccc(S(=O)(=O)N2CCCCCC2)cc1	.	.	5	.	-2
Cc1cc(NC(=O)CCN2C(=O)c3ccccc3C2=O)no1	.	.	4	.	-6
CCOCCCNC(=O)C1CCN(S(=O)(=O)CC)CC1	.	.	4	.	0
COc1ccc(C2C3=C(CC(C)(C)CC3=O)N(CCN3CCOCC3)C3=C2C(=O)CC(C)(C)C3)cc1	.	.	11	.	8
Cn1c(=O)c2c(nc(NC3CCCCC3)n2CC(=O)C23CC4CC(CC(C4)C2)C3)n(C)c1=O	.	.	-9	.	1
COc1ccc(C2CC(c3cccc(OC)c3)n3nc(N)nc3N2)cc1 (centres undefined)	.	.	0	.	1
Cc1ccc(C(=O)OCC(=O)c2ccc(Cl)s2)s1	i	i	3	i	-6
O=C(c1ccc2c(c1)OCCO2)C1CCN(C(=O)c2ccc(F)cc2)CC1	i	i	1	i	-4
Cc1ccc(-c2noc(CN3CCN(c4ccccc4F)CC3)n2)cc1	i	i	-1	i	2
Cc1ccc(N2Cc3ccccc3OC(C)C2=O)cc1 (centres undefined)	.	.	-3	.	2
COc1ccccc1-n1nnnc1SCc1ccccc1	i	i	3	i	7
COc1nc(OC)nc(N2CCC(NC(=O)C(Cc3ccc(C(C)C)cc3)NC(C)=O)CC2)n1 (centres undefined)	i	i	0	i	4
COc1ccc(OC)c(NC(=O)C2C3CCC(C3=C(C)C)C2C(=O)O)c1 (centres undefined)	.	.	26	.	38*
Cc1ccc(N2C(=O)c3ccc(C(=O)N4CCN(c5ccccc5F)CC4)cc3C2=O)cc1	.	.	-2	.	-3
COc1ccc(NCc2nnc(SCC(=O)Nc3cc(C)cc(C)c3)o2)cc1	i	i	2	i	0
CCc1ccc(NC(=O)NCCN2CCc3ccccc3C2)cc1	.	.	10	.	0
O=C(CSc1nnc(-c2ccc3c(c2)OCCO3)o1)N1CCCC1	.	.	4	.	8
CC1Cc2ccccc2N1C(=O)c1cc2c(=O)n3ccccc3nc2n1C (centres undefined)	.	.	-3	.	-1
CCn1c(=O)cc(SCC(=O)NCc2ccc3c(c2)OCO3)c2ccccc21	.	.	0	.	1
Cc1ccc(C)c(Cc2c(C)nc3c(C(=O)N4CCOCC4)cnn3c2C)c1	.	.	3	.	-3
Cc1ccc(-n2nnnc2SCC(=O)c2cc(C)n(CC3CCCO3)c2C)cc1 (centres undefined)	i	i	-14	i	6
COc1ccc(NC(=O)C(NS(=O)(=O)c2ccc3c(c2)CCCN3C(C)=O)C(C)C)c(OC)c1 (centres undefined)	.	.	-2	.	1
Cn1c(COc2ccc(Cl)cc2)nnc1SCC(=O)NC1CCCCC1	i	i	-3	i	4
Cc1[nH]n2c(=O)c3c(nc2c1-c1cccc2ccccc12)CCC3	.	.	28	.	48*
CCOC(=O)C1CCN(S(=O)(=O)c2cc(Br)cc3c2N(C(C)=O)C(C)C3)CC1 (centres undefined)	.	.	1	.	-9
COc1ccc(-n2nc(C(=O)NCC(=O)NCC3CCCO3)c3ccccc3c2=O)c(OC)c1 (centres undefined)	.	.	-1	.	6
COCCN(C(=O)c1csnn1)C(C(=O)NC(C)(C)C)c1cccc(OC)c1 (centres undefined)	i	i	5	i	9
COc1ccc(C)cc1NC(=O)CN1CCN(CC(=O)Nc2ccccc2F)CC1	.	.	8	.	-5
CC1=C(C(=O)Nc2cccnc2)C(c2ccccn2)n2nnnc2N1 (centres undefined)	.	.	19	.	13
CC1CCN(CCCNC(=O)C2CCN(S(=O)(=O)N3CCCCC3)CC2)CC1	.	.	-8	.	-7
CCCCCn1c(CN2CCN(C(=O)c3ccco3)CC2)nc2c1c(=O)n(C)c(=O)n2C	i	i	2	i	-2
O=C(CN(CCc1ccccc1)C(=O)CN1C(=O)COc2ccccc21)NCc1ccco1	i	i	-4	i	1
Cc1cc(C)nc(N(C#N)Cc2ccccc2Cl)n1	.	.	4	.	5
CCNCC(O)COCC(O)CNCC (centres undefined)	i	i	-6	i	3
Cn1cc(C(=O)c2ccc(F)cc2)cc1-c1nc2ccccc2n1C	i	i	-4	i	2
CC(C)CC(c1nnnn1C1CCCC1)N1CCN(c2ccccc2F)CC1 (centres undefined)	i	i	-4	i	11
CCN(CC)CCCNC(=O)c1sc2nc(-c3ccc(F)cc3)cn2c1C	.	.	-3	.	10
CCC(=O)c1ccc(OCC(=O)N2CCc3cc(OC)c(OC)cc3C2)cc1	i	i	2	i	0
